# High-throughput results from PubChem.
# RVFV N-RNA inh: inhibitors of Rift Valley Fever Virus nucleocapsid-RNA interaction; RVFV N-RNA binding, fluorescence polarization; active compounds read low; % bound, % (no concentration beside the values); 20,000 tested, 0.1% active;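 active means between 0 and 58% in either replicate with normal brightness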;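 further: 100 nL library stock added to about 12 µL; 100% = protein and probe without compound and 0% = probe alone; numbers are from one replicate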
# Target sequence (P21700 whole entry, looked up): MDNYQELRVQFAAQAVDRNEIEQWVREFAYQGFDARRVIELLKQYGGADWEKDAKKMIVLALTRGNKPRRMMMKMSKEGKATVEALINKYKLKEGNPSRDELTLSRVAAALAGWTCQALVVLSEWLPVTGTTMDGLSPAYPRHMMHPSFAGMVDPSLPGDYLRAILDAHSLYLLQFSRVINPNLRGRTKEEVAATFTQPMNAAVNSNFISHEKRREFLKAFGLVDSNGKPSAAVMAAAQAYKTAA
# * hit, by the source's call; & = joins results of further samples. Some of the compounds tested (hit frequency here may not be typical).
Compound | RVFV N-RNA inh
CCC(=O)N(Cc1ccc(S(N)(=O)=O)cc1)C1CC(=O)N(c2ccccc2)C1=O (configuration not stated) | 99
CCc1ccccc1NC(=O)c1cccc(NC(=O)/C=C/c2ccco2)c1 | 92
CCCS(=O)(=O)Nc1ccc(N2CCN(c3ccc(C(F)(F)F)cn3)CC2)nc1 | 98
S=c1[nH]c(-c2ccccc2)cn1-c1ccccc1 | 97
COc1ccc(CNC(=O)NC2CCCCC2)cc1 | 92
CCOC(=O)c1ccc(-c2cccc(C(F)(F)F)c2)o1 | 106
COc1ccc(C(=O)Sc2ccc(C)cc2)cc1OC | 92
CCOc1ccc(N2C(=O)CC(Sc3nccc(C)n3)C2=O)cc1 (configuration not stated) | 97
CCS(=O)(=O)NCCc1sc(C)nc1C | 101
CN(C)CCCN1c2ccccc2Sc2ccc(C(F)(F)F)cc21 | 97
C(=N\N1CCN(c2ccccn2)CC1)/c1ccccn1 | 97
CN(C)CCc1c[nH]c2ccc(C[C@H]3COC(=O)N3)cc12 | 101
O=C(CCS(=O)(=O)Cc1ccccc1)N1CCc2ccccc21 | 92
Oc1ccc2c3c1O[C@H]1c4[nH]c5ccccc5c4C[C@@]4(O)[C@@H](C2)N(CC2CC2)CC[C@]314 | 97
CCCCC(=O)Nc1cc(C)c2c(=O)oc3ccccc3c2n1 | 102
Nc1nnc(C(F)(F)C(F)(F)C(F)(F)F)s1 | 97
CNC(=O)C12CCC(C)(c3nc4cc(C)c(C)cc4nc31)C2(C)C (configuration not stated) | 91
Nc1nc2ccc(OC(F)(F)F)cc2s1 | 102&98&98
CCC1CCCCN1C(=O)C1CC(c2cc(Cl)c(OC)cc2OC)=NO1 (configuration not stated) | 94
C=CCc1cccc2cc(C(=O)NC)c(=O)oc12 | 105
Nc1c(C(=O)OCC2CCCO2)c2nc3ccccc3nc2n1-c1ccc2c(c1)OCO2 (configuration not stated) | 98
CN1CCc2c(sc3[nH]c(=S)n(-c4ccccc4)c(=O)c23)C1 | 91
O=C(Cn1nnc(N2CCOCC2)n1)c1ccc(Cl)cc1 | 102
CC(C)COc1ccc(C(=O)Nc2ncn[nH]2)cc1 | 98
CCOc1ccc2nc(N3CCCC3)sc2c1 | 99
CCC1(C)Cc2ccccc2-c2c1c(=O)n(-c1ccc(C)cc1)c1nnnn21 (configuration not stated) | 92
Cc1cccc(C(=O)Nc2cccc(-c3ccc(N4CCN(C)CC4)nn3)c2)c1 | 86
CC(Sc1nnc(N)s1)c1nc2ccccc2c(=O)[nH]1 (configuration not stated) | 90
C/C(Nc1ccc(Br)cc1)=C(/C#N)C(N)=O | 92
N#Cc1c(-c2ccccc2)cc(-c2ccccc2)nc1N1CCOCC1 | 99
CCC(SC1=NCCS1)C(=O)Nc1ccc(NC(C)=O)cc1 (configuration not stated) | 92
CCCn1c2ccc(C)cc2c2nnc(SCCN(CC)CC)nc21 | 99
N[C@@H](CC(=O)O)C(=O)O | 94
C/C(=C/C(=O)O)C(=O)Nc1nc(-c2cccs2)cs1 | 98
NC(=S)N/N=C/c1cccc(C(F)(F)F)c1 | 93
NNc1ncc(Cl)cc1Cl | 107
CCCC(=O)N1CCC2(CC1)OCCO2 | 88
COc1cccc(C(=O)Nc2cnn(CCCC(=O)O)c2)c1 | 81
CCOc1ccc(C(=O)Nc2cccc(-c3ccc(N4CCOCC4)nn3)c2)cc1OCC | 89
Cc1onc(-c2ccccc2Cl)c1C(=O)NCC1CCN(C(=O)OC(C)(C)C)CC1 | 94

# Quoted at random: 14 compounds from above
Compound | RVFV N-RNA inh
CCS(=O)(=O)NCCc1sc(C)nc1C | 101
NC(=S)N/N=C/c1cccc(C(F)(F)F)c1 | 93
CN1CCc2c(sc3[nH]c(=S)n(-c4ccccc4)c(=O)c23)C1 | 91
CC(Sc1nnc(N)s1)c1nc2ccccc2c(=O)[nH]1 (configuration not stated) | 90
CC(C)COc1ccc(C(=O)Nc2ncn[nH]2)cc1 | 98
COc1cccc(C(=O)Nc2cnn(CCCC(=O)O)c2)c1 | 81
CCC(SC1=NCCS1)C(=O)Nc1ccc(NC(C)=O)cc1 (configuration not stated) | 92
Cc1onc(-c2ccccc2Cl)c1C(=O)NCC1CCN(C(=O)OC(C)(C)C)CC1 | 94
C(=N\N1CCN(c2ccccn2)CC1)/c1ccccn1 | 97
O=C(CCS(=O)(=O)Cc1ccccc1)N1CCc2ccccc21 | 92
CN(C)CCCN1c2ccccc2Sc2ccc(C(F)(F)F)cc21 | 97
CCOC(=O)c1ccc(-c2cccc(C(F)(F)F)c2)o1 | 106
C=CCc1cccc2cc(C(=O)NC)c(=O)oc12 | 105
CNC(=O)C12CCC(C)(c3nc4cc(C)c(C)cc4nc31)C2(C)C (configuration not stated) | 91

# More records:
Compound | RVFV N-RNA inh
CSc1nc(S(=O)(=O)c2ccc(C)cc2)c(N2CCOCC2)s1 | 88
NNC(=O)Cn1nc2n(c1=O)-c1ccccc1SC2 | 92
Cc1ccc2nc(N3CCN(C=O)CC3)nc(-c3ccccc3)c2c1 | 93
Cc1ccc(/C=c2/sc3nc(=O)cnn3c2=O)cc1 | 94
N#C/C(=C\c1cccnc1)C(=O)OCc1ccccc1 | 88
Nc1nc(Nc2ccc(S(N)(=O)=O)cc2)nn1C(=S)Nc1c(F)cccc1F | 106
N#C/C(C(=O)NCc1ccco1)=C1/SC=C(c2ccccc2)N1c1ccccc1 | 112
C=CCOc1ccc(C(=O)N2CCc3ccccc3C2)cc1 | 91
Cc1cc(=O)[nH]c(-c2ccc(C(F)(F)F)cc2)n1 | 96
Cc1cc(C)c2ccc(=O)cc-2o1 | 87
CSc1nnc(NC(=O)Cc2ccccc2)s1 | 96
Cc1nn(CC(=O)N2CCCC2)c(C)c1NC(=O)c1cnn2c1NC(c1ccco1)CC2C(F)(F)F (configuration not stated) | 86
COc1ccc2c(c1)CCC(C)N2C(=O)Nc1ccc(OC)c(OC)c1 (configuration not stated) | 100
Cc1nc2ccc(NC(=O)Nc3ccccc3)cc2o1 | 99
CCc1ccccc1NNC(=O)c1snnc1C | 103
O=C(CCn1cnc2ccccc21)N/N=C/c1ccccc1 | 103
O=C(NCCN1CCOCC1)NC(=O)c1ccccc1 | 96
CCC(=O)NC(=S)Nc1cc(-c2nc3ncccc3o2)ccc1C | 93
CSc1ccc(/C=C2\SC(=O)N(C)C2=O)cc1 | 97
CCOC1(OCC)N=C(N)c2ccccc21 | 95
O=c1c2[nH]c3ccccc3c2nc(SCCC2OCCO2)n1-c1ccccc1F | 95
Cc1cc(NCCO)cc(=O)n1Cc1ccco1 | 89
Cc1ccc(S(=O)(=O)N2CCCC2C(=O)Nc2nccs2)cc1 (configuration not stated) | 86
NCC1CCN(Cc2ccccc2Cl)CC1 | 104
COc1cc(CNC2CCCCC2C)cc(OC)c1 (configuration not stated) | 90
Cc1ccc(NC(=S)/N=C(\N)C(C)C)cc1 | 95
Cc1cc(C)n(NC(=S)NC2CC3C=CC2C3)c(=O)c1C#N (configuration not stated) | 107
NC(=O)C1CCN(C(=S)Nc2ccccc2)CC1 | 97
CCCCN=C(C)C1C(=O)c2ccccc2C1=O | 102
COc1ccc(-n2c(NN)nc3c(c2=O)C2(CCCC2)Cc2ccccc2-3)cc1 | 101
Clc1nc2cc3c(cc2s1)OCO3 | 92
O=c1c2ccccc2c(=O)n2n1CC=CC2 | 87
COc1cc(CNc2ccccc2SC)ccc1O | 94
Brc1ccc(CSc2nc3ccccc3o2)cc1 | 94
O=C(NC1CCS(=O)(=O)C1)c1cccc(S(=O)(=O)N2CCCC2)c1 (configuration not stated) | 88
FC(F)(F)c1ccnc(NCCN=Cc2ccccc2)n1 | 93
OC(OCc1ccc(C(O)(C(F)(F)F)C(F)(F)F)o1)(C(F)(F)F)C(F)(F)F | 95
NC(=O)c1ccsc1NC(=O)c1coc2ccccc2c1=O | 102
Cc1nnsc1C(=O)Nc1ccc(C(N)=O)cc1 | 97
Cc1cc(C(F)(F)F)c(C#N)c(SCC(=O)O)n1 | 98

# Part of the list above in a different format.
Cc1nnsc1C(=O)Nc1ccc(C(N)=O)cc1
  RVFV N-RNA inh: 97
Cc1cc(C(F)(F)F)c(C#N)c(SCC(=O)O)n1
  RVFV N-RNA inh: 98

# Additional structures follow.
structure	RVFV N-RNA inh
C=CCN(CC=C)S(=O)(=O)c1ccc(/C(O)=C(/C#N)c2nc3ccccc3[nH]2)cc1	87
COc1cccc(C(=O)NC(C)C(c2cccs2)N2CCN(C)CC2)c1 (configuration not stated)	100
COC(=O)C(C)N1C(=O)S/C(=C/c2ccc(F)cc2)C1=O (configuration not stated)	99
CC(NC1=CC(=O)OC12CCCCC2)c1ccccc1 (configuration not stated)	91
Fc1ccc(C(c2ccc(F)cc2)N2CCN(C/C=C/c3ccccc3)CC2)cc1	93&92
COC(=O)c1ccc(C)c(NC(=O)C(OC)c2ccccc2)c1 (configuration not stated)	97
O=C(COc1ccc(Cl)cc1Cl)Nc1ncccn1	96
O=C(COc1ccc2oc(-c3ccco3)cc(=O)c2c1)OC1CCCCC1	98
COc1ccc(Cl)cc1S(=O)(=O)N1CCN=C1c1ccccc1	92
Fc1ccc(N2CCN(Cc3cccs3)CC2)cc1	96
NC(=O)CC1Nc2cccc3cccc(c23)NC1=O (configuration not stated)	94
CC1(C)OC(=O)C(=Cc2cc3ccccc3o2)C(=O)O1	94
C[C@]12C=CC(=O)C=C1CC[C@@H]1[C@@H]2C(=O)C[C@@]2(C)[C@H]1CC[C@]2(O)C(=O)CO	94&94
CC(N=CC1=C(O)CC(C)(C)CC1=O)c1ccccc1 (configuration not stated)	100
CC(=O)Nc1ccc(NC(=O)c2ccc(I)cc2)cc1	95
Cc1cc(C)cc(Nc2cc(C)nc(-n3nc(C)cc3C)n2)c1	99
COc1ccc(CN2CCSCC2)c(C)c1C	83
CCCCc1ccc2nc(NC(=O)c3ccco3)sc2c1	107
Oc1ccccc1CNC1CCCCC1	92
CN(C)S(=O)(=O)Nc1ccc(OCc2ccccc2)cc1	89
NC(=O)c1ccccc1CCc1ccccc1	96
CC1=C(C(=O)O)N2C(=O)[C@@H](NC(=O)[C@H](N)c3ccccc3)[C@H]2SC1	108
COC(=O)CN(c1cccc(C)c1)S(=O)(=O)c1ccccc1	93
COc1ccc(-c2nc(SCCC(=O)O)n[nH]2)cc1	99
Cc1ccc2[nH]c(O)c(N=NC(=O)c3cccc(O)c3)c2c1	85
CN1CCC(NC(=O)CCCc2ccccc2)CC1	93
CC1CN(C(=O)c2cc(S(=O)(=O)N3CCCC3)ccc2Cl)CC(C)O1 (configuration not stated)	85
CCCS(=O)(=O)N1CCn2cccc2C1c1ccc(Cl)cc1Cl (configuration not stated)	96
c1ccc2c(c1)NC(c1ccc3c(c1)OCCO3)n1cccc1-2 (configuration not stated)	107
CCOc1ccc(C2CNC(=O)C2)cc1 (configuration not stated)	99
N/C(=N\OC(=O)CN1C(=O)c2ccccc2C1=O)c1ccccn1	93
O=S(=O)(NNc1cnc2ccccc2n1)c1ccccc1C(F)(F)F	92
N#Cc1ccc(S(=O)(=O)NC2CCCCNC2=O)cc1 (configuration not stated)	98
CCNC(=O)C(C)Oc1ccc(Cl)c(C)c1 (configuration not stated)	99
O=C(O)CSc1ccc2nnc(-c3cccnc3)n2n1	99
COC(F)(C(=O)N1CCOCC1)C(F)(F)F (configuration not stated)	105
COC(=O)/C(C#N)=C/c1cccc(OC)c1	109
Cc1c(C(=O)NCc2ccco2)oc2c1C(=O)CCC2	97
CCn1cc(CN(C)C(=S)Nc2ccc(S(=O)(=O)Nc3ncccn3)cc2)c(C)n1	100
CCC(C)c1ccccc1NC(=O)C1CCCO1 (configuration not stated)	94
N#Cc1ccc(OC(C(F)(F)F)C(F)(F)F)cc1C#N	93
O=C(O/N=C1/CCCc2occc21)c1ccccc1	88
Nc1ccc2c(c1)ncn2CCc1ccccc1	98
CCN(C(=O)c1ccnc(C(C)(C)C)c1)c1ccccc1	100
Oc1ccccc1C(=S)N1CCN(C(=S)c2ccccc2O)CC1	87
CN(C)S(=O)(=O)c1ccc(C(=O)Nc2ccccc2SCCC#N)cc1	96
O=S(=O)(c1cccc(Cl)c1Cl)N1CCOCC1	105
O=C(Cc1cccs1)NCCCN1CCCC1=O	93
S=c1[nH]nc(C2CCCCC2)n1N=Cc1cccnc1	85
O=C(CSc1nc2c(oc3ccccc32)c(=O)n1CC1CCCO1)Nc1ccccc1 (configuration not stated)	95
CSc1nnc(Cn2c(=O)sc3ccccc32)n1CCc1ccccc1	99
CNCC[C@H](Oc1cccc2ccccc12)c1cccs1	98&94
Cc1oc(/C=N/NS(=O)(=O)c2ccccc2)cc1Br	97
O=C(O)C1C2CCC(CC2)C1C(=O)O (configuration not stated)	93
COC(=O)COc1cccc2c(=O)n(CC(N)=O)ccc12	102
O=C(O)CCCC1=NS(=O)(=O)c2ccccc2N1	96
CC1CN(C)C(C)C(/C=C(/C#N)C(N)=S)C1=O (configuration not stated)	98
CC1CC(=O)Nc2ccccc2N1S(=O)(=O)c1cn(C)cn1 (configuration not stated)	97
CC(=O)OCC(=O)[C@@]1(O)[C@@H](C)CC2C3CCC4=CC(=O)C=C[C@]4(C)[C@@]3(F)[C@@H](O)C[C@@]21C (some centres not stated)	100
CCOC(=O)N1CCN(C(=S)NC2CCCC2)CC1	98

# Gathered by group: the entries above containing bromine (three)
structure	RVFV N-RNA inh
C/C(Nc1ccc(Br)cc1)=C(/C#N)C(N)=O	92
Brc1ccc(CSc2nc3ccccc3o2)cc1	94
Cc1oc(/C=N/NS(=O)(=O)c2ccccc2)cc1Br	97

# Remaining list, next part:
structure	RVFV N-RNA inh
N#CC(C#N)=C1CCC(=C(C#N)C#N)CC1	89
CC(C)N1CCC(=O)N(c2ccc(C(C)(C)C)cc2)C1=O	90
O=C(O)/C=C\C(=O)NCC1(c2ccccc2)CCOCC1	88
O=C(Cn1cnc2c(cnn2-c2ccccc2)c1=O)NCCc1ccccc1	101
CC1(C)C(C(=O)ON2C(=O)CCC2=O)C1(C)C	92
O=C1CN(C(=O)CCc2ccccc2)c2ccccc2N1	93
OC1CCN(Cc2cccc(Br)c2)CC1	98
Fc1ccc(CN2CCN(c3ncccn3)CC2)cc1F	98
Cc1nn(-c2ccccc2)nc1C(=O)ONC(=O)Cc1ccccc1	99
CN(C)Cc1nc2c(c(=O)[nH]1)C(C)(C)Cc1ccccc1-2	94
CC12CCC3C(CCC45CC(=O)CCC34C5)C1CCC2=O (configuration not stated)	95
O[C@@H]1CCCC[C@H]1N1CCC(c2ccccc2)CC1	101
CCCCS(=O)(=O)N1CCN(C(=S)c2ccc(OC)cc2)CC1	106
